Screening data from PubChem BioAssay.
GIV Gai3 FP = GIV-Galpha-i interaction inhibition | P08753 | Galpha-i3/FITC-GIV peptide fluorescence polarization, 90 min; stronger effect = lower value; scaled: aluminum fluoride 0%, vehicle 100% | percent of control (FP), % (concentration not given with the values) | 0.42% of 210,000 active;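 active = replicate mean at 85% of control or lower, very high polarization wells dropped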;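 also: wells of about 15 µL received 100 nL stock; the first replicate is given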
Target sequence (P08753 whole entry, looked up): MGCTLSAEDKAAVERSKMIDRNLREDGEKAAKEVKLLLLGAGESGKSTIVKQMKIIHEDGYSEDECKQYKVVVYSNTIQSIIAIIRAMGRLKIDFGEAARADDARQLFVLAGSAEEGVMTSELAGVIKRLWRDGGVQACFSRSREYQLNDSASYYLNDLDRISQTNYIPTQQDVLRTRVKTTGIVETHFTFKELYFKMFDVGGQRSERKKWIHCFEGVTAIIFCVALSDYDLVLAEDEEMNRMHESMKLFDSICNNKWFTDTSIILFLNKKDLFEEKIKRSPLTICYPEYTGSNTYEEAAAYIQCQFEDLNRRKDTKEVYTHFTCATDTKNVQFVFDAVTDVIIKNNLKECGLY
HCMV NEC inh = cytomegalovirus nuclear egress complex inhibition | HTRF UL50-UL53 interaction, normalized percent inhibition | inhibition, % (test concentration not listed) | 0.15% of 190,000 active | AID 1918969;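 active = both replicates at 50% or more, plus weaker picks with an unusually low signal ratio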;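 also: stock transfer was 100 nL into about 20 µL; 0% = negative control wells and 100% = wells with untagged competitor protein; inactives centre near -12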
Sa growth inh = inhibitors of Staphylococcus aureus growth at 42 °C | S. aureus RN4220 growth, OD600, 20 h; stronger effect = lower value | relative growth, % (test concentration not listed) | 0.53% of 170,000 active | AID 720641;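 active = growth at 42 °C up to 50% and 20 or more points under that at 30 °C, or under 10% at both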;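 also: 300 nL library stock went into each well; scaled to the means of positive and negative controls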
Sa growth inh second temp = further read-out of Sa growth inh, marked with its call; relative growth, %; measured here: growth at 30 °C;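 optical density after 20 h as mean of two plates; 100% = untreated growth and lower means inhibition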
Active calls of the source: *; . = no result given.

[1] Cc1ccc(-n2nc(C(=O)Nc3ccc(F)cc3F)c3c4ccccc4n(C)c3c2=O)cc1
[2] CC1(C)CC(NC(=O)CCCOc2ccc(Cl)cc2Cl)CC(C)(C)N1
[3] Nc1c(C(=O)Nc2ccc([N+](=O)[O-])cc2)sc2nc3c(cc12)CCCCC3
[4] O=C(c1cccc(C(=O)N2CCN(c3ccccc3)CC2)c1)N1CCN(c2ccccc2)CC1
[5] CN1C=C(C(F)(F)F)C=CC1=C(C#N)C#N
[6] O=C(c1ccc(CS(=O)c2ccccc2Cl)o1)N1CCN(c2cccc(C(F)(F)F)c2)CC1 (stereo not given)
[7] O=C(O)c1ccc(NC(=O)c2cccc(Br)c2)cc1
[8] CN1CCN(C(=S)c2cccc(OCc3ccccc3)c2)CC1
[9] NC(=O)CCN1CCOCC1
[10] Cc1c(Cl)cccc1S(=O)(=O)N1CCc2nc(N3CCCCC3)ncc2C1

assay / entry,1,2,3,4,5,6,7,8,9,10
GIV Gai3 FP,96,104,100,100,.,107,102,105,91,109
HCMV NEC inh,-16,-17,-2,-14,-67,.,4,-34,3,-13
Sa growth inh,104,105,.,96,90,92,107,117,102,.
Sa growth inh second temp,90,86,.,81,73,44,72,79,122,.

[11] CC(=O)Nc1nc2ccccc2n1Cc1ccccc1
[12] Cc1ccc2c(CC(=O)N(Cc3nnc(-c4ccccc4)o3)C(C)C)coc2c1
[13] COc1ccc(NC(=O)CN(C)S(=O)(=O)c2ccc3c(c2)CCCC(=O)N3)cc1
[14] O=C(NC1CCCC1)c1cc(-c2ccc(F)cc2)no1
[15] Cc1nn(-c2cc(N3CCOCC3)ncn2)c(C)c1CCC(=O)N1CCN(c2ccc(F)cc2)CC1
[16] O=C(NCc1ccc2c(c1)OCO2)c1ccccc1CSc1nc2ccccc2o1
[17] CC(C)(CC(=O)O)CC(=O)N1CCN(c2ccc(F)cc2)CC1
[18] Nc1ccc2c(c1)nc(-c1ccccc1)c1cc(N)ccc12
[19] O=C(CSc1ccc2nnc(-c3ccccc3)n2n1)NC1CCCC1
[20] CCN(CC)S(=O)(=O)c1ccc(NC(=O)c2nn(C)c3c2CSc2ccccc2-3)cc1

assay / entry,11,12,13,14,15,16,17,18,19,20
GIV Gai3 FP,99,.,109,105,97,.,101,.,102,103
HCMV NEC inh,-6,-16,-5,.,1,-22,-16,-35,34*,-15
Sa growth inh,.,101,.,98,.,89,93,90,92,110
Sa growth inh second temp,.,91,.,91,.,98,79,102,84,86

[21] COc1ccc(CC(=O)N2CCc3cc(OC)c(OC)cc3C2COc2cc(C)cc(C)c2)cc1OC (stereo not given)
[22] CCn1ccc(C(=O)Oc2ccc(Cl)cc2)n1
[23] CC(C)(C)c1ccc(-c2nc(=S)[nH][nH]2)cc1
[24] CN(Cc1ccccc1)Cc1nnc(-c2ccccc2)o1
[25] CN1CCN(S(=O)(=O)c2ccc(Oc3ccc(Br)cc3Cl)nc2)CC1
[26] CCN(CC(O)COc1ccc(OCC(O)CN(CC)C2CCCCC2)cc1)C1CCCCC1 (stereo not given)
[27] COC(=O)c1ccc(Cl)cc1NC(=O)N1CCN(Cc2nc3cccnc3n2-c2ccccc2)CC1
[28] Cc1cccc(CNC(=O)c2ccc(NC(=O)N3CCSc4ncccc43)cc2)c1
[29] CC(C)NC(=O)CC(C)c1ccccc1 (stereo not given)
[30] OCc1ccccc1CN1CCOCC1

assay / entry,21,22,23,24,25,26,27,28,29,30
GIV Gai3 FP,115,105,102,105,.,99,107,101,99,.
HCMV NEC inh,.,1,-16,-4,-31,-26,0,.,-11,-11
Sa growth inh,134,78,34,112,79,81,.,84,105,95
Sa growth inh second temp,100,94,23,90,94,82,.,89,98,90

[31] Cn1c(=O)n(Cc2c(F)cccc2Cl)c(=O)c2c1nc1n2CCN1c1ccc(F)cc1
[32] CC1=Nc2cc(C(=O)NCc3cccnc3)ccc2Sc2ccccc21
[33] O=C(CSc1nc2ccccc2o1)NCC1COc2ccccc2O1 (stereo not given)
[34] O=C(CSc1oc(-c2ccccc2)nc1S(=O)(=O)c1ccccc1)c1ccccc1
[35] O=C(O)COc1ccc(/C=C2\C(=O)NC(=O)N(c3ccccc3)C2=O)cc1Br
[36] CCc1ccc(Nc2cc(=O)n(C3CCCCC3)c(=O)[nH]2)cc1
[37] CCOC(=O)c1cccc(N2C(=O)C3C(C(=O)NC4CC4)C4(C)C=CC3(O4)C2C(=O)NC(C)(C)C)c1 (stereo not given)
[38] Cc1ccc(-n2c(-c3ccc(Cl)cc3)cn3c4c(=O)n(C)c(=O)n(C)c4nc23)cc1C
[39] COc1cccc(C2C(C(=O)Nc3ccccc3)=C(C)Nc3nc(-c4ccccc4)nn32)c1 (stereo not given)
[40] COC(=O)c1cc(O)c(C(=O)OC)s1

assay / entry,31,32,33,34,35,36,37,38,39,40
GIV Gai3 FP,103,104,.,102,94,105,101,104,101,99
HCMV NEC inh,.,.,2,20,-26,.,-13,-2,-16,-39
Sa growth inh,94,97,154,111,.,110,94,.,106,95
Sa growth inh second temp,95,75,94,111,.,83,74,.,88,81

Only Sa growth inh and GIV Gai3 FP (seven entries from above):
| nr | SMILES | Sa growth inh | GIV Gai3 FP |
| --- | --- | --- | --- |
| 34 | O=C(CSc1oc(-c2ccccc2)nc1S(=O)(=O)c1ccccc1)c1ccccc1 | 111 | 102 |
| 35 | O=C(O)COc1ccc(/C=C2\C(=O)NC(=O)N(c3ccccc3)C2=O)cc1Br | . | 94 |
| 36 | CCc1ccc(Nc2cc(=O)n(C3CCCCC3)c(=O)[nH]2)cc1 | 110 | 105 |
| 37 | CCOC(=O)c1cccc(N2C(=O)C3C(C(=O)NC4CC4)C4(C)C=CC3(O4)C2C(=O)NC(C)(C)C)c1 (stereo not given) | 94 | 101 |
| 38 | Cc1ccc(-n2c(-c3ccc(Cl)cc3)cn3c4c(=O)n(C)c(=O)n(C)c4nc23)cc1C | . | 104 |
| 39 | COc1cccc(C2C(C(=O)Nc3ccccc3)=C(C)Nc3nc(-c4ccccc4)nn32)c1 (stereo not given) | 106 | 101 |
| 40 | COC(=O)c1cc(O)c(C(=O)OC)s1 | 95 | 99 |

The results go on.
[41] CC(C)NC(=O)N1CCC(CN2CCOCC2)CC1
[42] CN(C)c1nc(-c2ccccc2)[nH]c(=O)n1
[43] CSc1nc2c(sc(=S)n2-c2ccccc2C)c(=O)n1-c1ccccc1C
[44] O=S(=O)(Nc1cccc(-c2ccc(N3CCCC3)nn2)c1)c1ccc(F)cc1F
[45] COc1ccccc1C(=O)n1nc(-c2cccnc2)nc1NCc1ccccc1
[46] CCn1cc(-c2nc(-c3ccc(OCC(C)C)cc3)no2)c(=O)c2cc(F)c(N3CCOCC3)cc21
[47] CCc1ccc(N2C(=O)CC(c3cc(OC)ccc3OC)C3=C2COC3=O)cc1 (stereo not given)
[48] CCOC(=O)c1ccc(NC(=O)CC2C(=O)N(c3ccc(C)cc3)C(=O)N2C2CCCCC2)cc1 (stereo not given)
[49] CCCCN(C)CCCNC(=O)C1CCN(S(=O)(=O)CC)CC1
[50] O=C(Nc1cccc(Cl)c1)c1ccc2c(Cl)c3c(nc2c1)CCCC3

assay / entry,41,42,43,44,45,46,47,48,49,50
GIV Gai3 FP,99,109,105,102,101,105,102,99,99,101
HCMV NEC inh,-1,-14,.,.,-34,-16,-15,-28,.,.
Sa growth inh,.,85,99,97,113,.,104,102,114,113
Sa growth inh second temp,.,87,87,91,89,.,84,88,97,87

[51] CC(C)COc1ccc(-c2nnn(CC(=O)N3C(C)CCCC3C)n2)cc1 (stereo not given)
[52] COc1cc(/C=C2/SC(N)=NC2=O)ccc1OCc1ccc([N+](=O)[O-])cc1
[53] CCC(C)NC(=O)CC12CC3CC(C1)CC(CC(=O)NC(C)CC)(C3)C2 (stereo not given)
[54] Cc1ccc(-c2nc(-c3cc4c([nH]c3=O)CC(C)(C)CC4=O)sc2C)cc1
[55] Cc1ccc(COc2cc(C(=O)NC3CCN(Cc4ccccc4)CC3)c3ccccc3n2)cc1
[56] CC(=O)NN1C(=O)c2ccccc2NC1c1ccccn1 (stereo not given)
[57] Cc1cc(N=Cc2c(O)n(-c3ccccc3F)c(=O)c3ccccc23)n[nH]1
[58] Cc1c(CCNC(NC(=O)c2ccc(Cl)cc2)(C(F)(F)F)C(F)(F)F)c2ccccc2n1C
[59] O=CNC(Cc1ccccc1)C(=O)O (stereo not given)
[60] CC(=O)Nc1ccc2oc(=O)ccc2c1

assay / entry,51,52,53,54,55,56,57,58,59,60
GIV Gai3 FP,97,105,.,108,105,105,.,.,100,.
HCMV NEC inh,0,4,-34,-7,-36,14,-54,-18,.,-27
Sa growth inh,91,.,115,91,.,107,90,99,112,90
Sa growth inh second temp,117,.,85,90,.,102,55,87,90,86

Look-ups from the entries so far:
For HCMV NEC inh, CCC(C)NC(=O)CC12CC3CC(C1)CC(CC(=O)NC(C)CC)(C3)C2 (stereo not given) has -34
For HCMV NEC inh, COc1cc(/C=C2/SC(N)=NC2=O)ccc1OCc1ccc([N+](=O)[O-])cc1 has 4
For Sa growth inh, CC(C)COc1ccc(-c2nnn(CC(=O)N3C(C)CCCC3C)n2)cc1 (stereo not given) has 91
For Sa growth inh, O=CNC(Cc1ccccc1)C(=O)O (stereo not given) has 112
For GIV Gai3 FP, Cc1ccc(-c2nc(-c3cc4c([nH]c3=O)CC(C)(C)CC4=O)sc2C)cc1 has 108
For Sa growth inh second temp, Cc1c(CCNC(NC(=O)c2ccc(Cl)cc2)(C(F)(F)F)C(F)(F)F)c2ccccc2n1C has 87

Going on with the list:
[61] S=c1nc(Cc2ccc(Cl)cc2)[nH][nH]1
[62] c1cnc2c(CN3CCCC3)cccc2c1
[63] COC(=O)CSc1cc(C(F)(F)F)c(C(=O)Nc2ccc(Cl)cc2)cn1
[64] Cc1nc2c(C(=O)NCCc3ccccc3)c[nH]n2c(=O)c1Cc1ccccc1F
[65] CN(C(=O)CSCc1ccccc1)c1ccccc1
[66] Cc1c(C(=O)O)sc2ncnc(N3CCN(c4ccccn4)CC3)c12
[67] N/C(=N\OC(=O)CSc1ccccc1)c1ccncc1
[68] CC1SC2(OC1=O)C1CC3CC(C1)CC2C3 (stereo not given)
[69] Cc1ccc(CNC(=O)CSc2nc3cc(S(=O)(=O)N4CCCCC4)ccc3o2)cc1
[70] CC(C)(C)C(=O)/C(C#N)=C/Nc1ccc(Cl)cn1

assay / entry,61,62,63,64,65,66,67,68,69,70
GIV Gai3 FP,.,.,107,103,103,110,103,93,.,106
HCMV NEC inh,-9,-29,-11,-56,7,-9,-8,-25,-11,-461
Sa growth inh,71,111,114,0.7*,109,.,103,88,79,93
Sa growth inh second temp,88,78,92,0.6*,106,.,97,81,97,84

[71] CC(C)CCNC(=O)C1c2ccccc2C(=O)N(C)C1c1cn(C)c2ccccc12 (stereo not given)
[72] CN1CCc2nc3sc(C(=O)c4ccc5c(c4)OCO5)c(N)c3cc2C1
[73] COc1c(C)cnc2c1c(=O)n(CC(=O)N1CCCc3ccccc31)c(=O)n2C
[74] COC(=O)c1cc(N2C(=O)C3C4C=CC(C)(O4)C3C2=O)ccc1Cl (stereo not given)
[75] Cc1ccc(C2=NN(C(=O)c3ccc(Br)o3)C(c3ccc(C)cc3)C2)cc1 (stereo not given)
[76] O=C(N1CCN(c2ccccn2)CC1)C12CC3CC(CC(C3)C1)C2

assay / entry,71,72,73,74,75,76
GIV Gai3 FP,102,193,99,103,104,102
HCMV NEC inh,.,-36,6,.,.,-32
Sa growth inh,88,77,.,116,103,89
Sa growth inh second temp,85,51,.,66,90,89

Entries of single compounds as entered above.
Results for CC(C)(CC(=O)O)CC(=O)N1CCN(c2ccc(F)cc2)CC1 → GIV Gai3 FP: 101; HCMV NEC inh: -16; Sa growth inh: 93; Sa growth inh second temp: 79
Results for CN(C(=O)CSCc1ccccc1)c1ccccc1 → GIV Gai3 FP: 103; HCMV NEC inh: 7; Sa growth inh: 109; Sa growth inh second temp: 106
